# Beta2AR agonist: beta2AR agonists driving receptor internalization, primary screen, cell-based, FAP fluorogen, flow cytometry | Am2.2-beta2AR cells; reference of the scale not given here | response, % (concentration not given with the values) | 0.43% of 340,000 active | AID 504454, 2011;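 active means response above a set limit, near 3 SD of response in nonfluorescent compounds, cut at about 42% in these data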;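 further: stock transfer was 100 nL into about 11 µL; a reference agonist was the positive control; negative values mostly stem from fluorescent compounds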
# Target sequence (P07550 whole entry, looked up): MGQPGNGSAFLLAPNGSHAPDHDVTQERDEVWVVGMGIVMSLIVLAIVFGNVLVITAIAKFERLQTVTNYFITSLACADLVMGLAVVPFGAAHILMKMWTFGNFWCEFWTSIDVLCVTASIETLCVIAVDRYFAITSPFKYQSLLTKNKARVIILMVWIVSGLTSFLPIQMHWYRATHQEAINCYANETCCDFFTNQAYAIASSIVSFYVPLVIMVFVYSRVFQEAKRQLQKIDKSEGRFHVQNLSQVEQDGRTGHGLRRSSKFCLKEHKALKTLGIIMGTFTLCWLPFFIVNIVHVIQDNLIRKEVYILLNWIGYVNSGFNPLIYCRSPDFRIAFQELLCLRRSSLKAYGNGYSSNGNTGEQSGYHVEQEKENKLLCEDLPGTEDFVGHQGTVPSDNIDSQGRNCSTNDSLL
# Vif A3G: inhibitors of Vif binding to APOBEC3G peptide, primary screen, biochemical, TR-FRET, GST-Vif 1-94, biotin-A3G peptide, dose response retest (AID 1117319). Virion infectivity factor (Human immunodeficiency virus type 1 group M subtype B (isolate …. TR-FRET GST-Vif / biotin-A3G peptide binding; higher % means a stronger effect; test concentration not given here; strong numbers were not always called active. one-dose inhibition, %; IC50 in µM for titrated hits. 0.57% of 260,000 active;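 active means above the screen mean plus three standard deviations and confirmed in dose response; inconclusive means results disagree or hit not tested in dose response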;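 further: Vif residues 1-94 fused to GST binding biotinylated APOBEC3G peptide 110-148; 0% = full assay without inhibitor and 100% = GST in place of GST-Vif; retest series ran down from 100 µM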
# LANA-H2B inh: blockers of LANA interaction with H2A/H2B – biochemical, FP readout, HTS, primary screen; 0.6% of 320,000 active; Protein LANA1 (Human herpesvirus 8 type P (isolate GK18)), Q9QR71; inhibition, % (test concentration not listed); cell-free LANA-H2A/H2B peptide, fluorescence polarization; in the data active means inhibition mostly above about 10%, no sharp cut-off; inactive means mostly below about 6.7%;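 further: stock transfer was 7.5 nL into about 10 µL; 0% = median of vehicle wells and 100% = median of positive control wells; one replicate is shown; the record names a cut of 25% in any replicate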
# Calb FLC: C. albicans growth inhibition with fluconazole, primary screen, CaCi-2 strain, Alamar Blue fluorescence; C. albicans CaCi-2 (fluconazole-resistant clinical isolate) + fluconazole, 48 h; growth inhibition, % (test concentration not listed); 0.57% of 300,000 active;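 active means most replicates above 75%; inconclusive means exactly half above 75%; inactive means most below 75%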;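 further: all wells also contain fluconazole at 8 µg/ml as a sub-toxic cotreatment; 0% = median of DMSO wells and 100% = median of geldanamycin control wells; wells of about 8 µL received 7.5 nL stock; the first replicate is given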
# HNF4A DNA FP: change in binding of human HNF4A to DNA, primary screen, biochemical, fluorescence polarization, FITC-DNA. Hepatocyte nuclear factor 4-alpha (Homo sapiens), P41235. 1 h. activity change, % at 10 µM. 0.3% of 360,000 active. AID 1224865, 2016; in the data active means activity change above about 30%, passing the limit was not always enough;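 further: controls were the assay level and a saturating level of protein; the project sought stronger binding though the title names inhibitors; some compounds called inactive have numbers as strong as hits; positive values seem to mean higher polarization but the record does not say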
# Target sequence (P41235 whole entry, looked up): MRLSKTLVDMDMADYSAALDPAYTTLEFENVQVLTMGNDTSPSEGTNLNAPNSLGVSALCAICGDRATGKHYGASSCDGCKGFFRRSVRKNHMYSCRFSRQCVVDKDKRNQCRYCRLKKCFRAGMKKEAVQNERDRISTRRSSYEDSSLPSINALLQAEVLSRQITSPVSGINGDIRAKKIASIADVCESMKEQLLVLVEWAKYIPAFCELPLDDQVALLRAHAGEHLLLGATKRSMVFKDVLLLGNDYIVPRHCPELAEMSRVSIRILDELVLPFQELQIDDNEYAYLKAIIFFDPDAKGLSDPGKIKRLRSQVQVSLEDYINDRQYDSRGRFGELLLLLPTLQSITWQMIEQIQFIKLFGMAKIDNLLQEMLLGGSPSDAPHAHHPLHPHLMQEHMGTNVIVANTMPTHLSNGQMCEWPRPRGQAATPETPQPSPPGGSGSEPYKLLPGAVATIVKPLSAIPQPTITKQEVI
# RanGTP-Imp inh: inhibitors of RanGTP-importin-beta interaction, primary screen, biochemical, FRET, CFP-Ran, YFP-importin-beta, homogeneous | 1.1% of 300,000 active | Ran GTPase (GTP-bound) - importin-beta complex | cell-free CFP-Ran/YFP-importin-beta FRET ratio | inhibition, % (concentration not given with the values);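 active means most replicates above 15%; inconclusive means exactly half above 15%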;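 further: 0% = DMSO wells and 100% = Ran loaded with GDP instead of GTP; wells of about 40 µL received 100 nL stock; the first replicate is given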
# ALR inh: inhibitors of human ALR sulfhydryl oxidase, primary screen, biochemical, H2O2 detection, HRP-luminol luminescence, single point; FAD-linked sulfhydryl oxidase ALR (Homo sapiens), P55789; purified ALR, DTT oxidation; inhibition, % (no concentration beside the values); 3.8% of 290,000 active; AID 485317, 2010;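 active means mean and each replicate at 75% or more; inconclusive means only one of the two met; inactive means neither met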;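 further: stock transfer was 7.5 nL into about 7.5 µL; 0% = neutral wells and 100% = wells with inactivated enzyme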
# Target sequence (P55789 whole entry, looked up): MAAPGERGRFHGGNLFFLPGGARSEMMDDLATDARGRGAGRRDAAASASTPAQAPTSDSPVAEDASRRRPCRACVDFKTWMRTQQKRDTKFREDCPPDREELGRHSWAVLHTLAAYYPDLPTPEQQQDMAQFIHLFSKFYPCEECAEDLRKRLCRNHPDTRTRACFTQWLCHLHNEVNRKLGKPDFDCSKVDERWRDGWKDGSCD
# Starred values were filed as active, the others as inactive; ? = inconclusive; nt = no result given. Hits appear at their usual frequency; about 6.3% have a hit in one of these screens.
# Start of the listing, in advance (six entries):
SMILES,Beta2AR agonist,Vif A3G,LANA-H2B inh,Calb FLC,HNF4A DNA FP,RanGTP-Imp inh,ALR inh
CC(=O)Nc1ccc(C(=O)Nc2cc(C)on2)cc1,0,-4%,2.0,nt,-2.4,2.4,24
CC(=O)N/C(=N/c1nc(C)cc(C)n1)Nc1ccc(C)cc1Cl,-4,4%,nt,-2,1.4,0.8,nt
CCN1C(=O)c2ccc(C(=O)Nc3c(C)cc(C)cc3C)cc2C1=O,12,nt,1.2,3,0.6,3.6,1
O=C(NC1CC1)C1CCN(c2ccc(S(=O)(=O)N3CCOCC3)cc2Cl)CC1,-4,12%,0.2,-8,-2.1,-1.3,-7
CS(=O)(=O)Nc1ccc2c3c(cccc13)CC2,2,nt,-1.5,7,3.6,-3.2,73
O=[N+]([O-])c1ccc(O)c(/C=N/Nc2ccccc2[N+](=O)[O-])c1,19,-4%,-1.5,-1,-2.8,-0.1,-10

# Results, from the start:
SMILES,Beta2AR agonist,Vif A3G,LANA-H2B inh,Calb FLC,HNF4A DNA FP,RanGTP-Imp inh,ALR inh
CC(=O)Nc1ccc(C(=O)Nc2cc(C)on2)cc1,0,-4%,2.0,nt,-2.4,2.4,24
CC(=O)N/C(=N/c1nc(C)cc(C)n1)Nc1ccc(C)cc1Cl,-4,4%,nt,-2,1.4,0.8,nt
CCN1C(=O)c2ccc(C(=O)Nc3c(C)cc(C)cc3C)cc2C1=O,12,nt,1.2,3,0.6,3.6,1
O=C(NC1CC1)C1CCN(c2ccc(S(=O)(=O)N3CCOCC3)cc2Cl)CC1,-4,12%,0.2,-8,-2.1,-1.3,-7
CS(=O)(=O)Nc1ccc2c3c(cccc13)CC2,2,nt,-1.5,7,3.6,-3.2,73
O=[N+]([O-])c1ccc(O)c(/C=N/Nc2ccccc2[N+](=O)[O-])c1,19,-4%,-1.5,-1,-2.8,-0.1,-10
CCNC(=S)Nc1cccc(S(=O)(=O)Nc2ccccc2OC)c1,-1,1%,-9.8,-3,0.1,0.0,24
COc1ccc(CNC(=O)C2CCCN(S(=O)(=O)N3CCC(C)CC3)C2)c(OC)c1 (centres undefined),4,nt,-2.4,-7,0.5,-1.0,-4
COc1ccc(C2CC(c3cccs3)=NN2C(=O)COC(=O)C2CCCCC2)cc1OC (centres undefined),-3,nt,-3.2,2,-2.0,0.9,1
Cc1ccccc1NS(=O)(=O)c1ccc(OCC(=O)N2CCCC2)cc1,-12,3%,2.2,5,-5.2,0.6,-1
CCOc1ccc(/C=N/n2cnnc2)cc1,5,5%,0.0,3,0.0,-6.3,-5
CCOC(=O)N1CCC2(CC1)C(C#N)=C(N)OC1=C2C(=O)CC(C)(C)C1,-13,13%,-5.6,-8,4.9,2.0,4
COc1ccc(CC(=O)NCc2nn(-c3ccccc3)nc2C)cc1OC,-3,nt,2.9,-2,-1.1,1.5,-4
Cc1ccc(-c2noc(CCC(=O)NCc3ccccc3CN3CCOCC3)n2)cc1,-6,-4%,-2.9,nt,1.2,nt,-16
Cc1nc(SCC(=O)N2CCN(c3ccccn3)CC2)c(C#N)c(C)c1C,-4,nt,3.0,nt,3.6,nt,nt
Cc1c(Cl)cccc1NC(=O)CS(=O)(=O)c1ccccc1,0,-5%,-2.2,40,-1.2,-2.8,-2
Nc1nc(-c2cccnc2)nn1C(=O)CCc1ccccc1,-9,24%,-1.4,?,-1.4,-5.6,-4
Nc1nc(SCC(=O)N2CCCCCC2)[nH]c(=O)c1NC(=O)c1ccco1,9,-4%,1.2,nt,2.3,nt,8
Cc1ccc(C(=O)Nc2ccc(SC(F)F)cc2)s1,12,-4%,1.6,5,0.5,3.6,10
COC(=O)C1=NN(c2ccccc2)C2C(=O)N(c3ccccc3OC)C(=O)C12 (centres undefined),10,4%,-3.4,9,-0.5,-1.8,-8
Cn1c(=O)c2c(nc(N3CCCC3)n2C)n(C)c1=O,0,-4%,0.0,-6,-1.7,5.4,15
CC(C)CCOc1ccc(C(=O)C[N+]2(C)CCOCC2)cc1,1,4%,0.8,22,0.1,4.5,-1
CCN(C(=O)COC(=O)CNC(=O)c1sc2ccccc2c1Cl)C1CCCCC1,5,-14%,-18,1,-1.5,nt,5
CC(NC(=O)CN(Cc1ccccc1)S(=O)(=O)c1ccccc1)c1cccnc1 (centres undefined),4,-10%,3.4,nt,-1.0,nt,-1
Cc1ccc(S(=O)(=O)N2CCOCC2)cc1NC(=O)CSc1nnnn1C,-6,nt,7.3,-3,-2.7,4.7,-3
COc1ccc(C2CC(c3cccs3)=NN2C(=O)CSC2=NCCS2)cc1 (centres undefined),-1,2%,-5.7,10,7.9,?,-4
CCOC(=O)C1=C(C)C/C(=N\NC(=O)c2ccccc2O)CC1,0,18%,17*,-8,-3.2,1.2,2
COc1ccc(NC(=O)CSc2nc3ccccc3nc2N2CCOCC2)cc1,-18,nt,-6.1,0,-0.6,5.8,-3
O=C(NCCCN1CCN(c2ccc(F)cc2)CC1)NC12CC3CC(CC(C3)C1)C2,5,1%,-0.8,2,5.3,-1.4,1
COCCN1CCN(C(=O)C2CCC(=O)N(Cc3ccccc3F)C2)CC1 (centres undefined),-3,nt,-2.7,-4,-2.3,-0.8,-7
CN(CCc1ccccc1)C(=O)c1cccc(NC(=O)Cc2cccc([N+](=O)[O-])c2)c1,-2,nt,-3.0,nt,0.4,nt,2
O=C(CN(c1cccc(C(F)(F)F)c1)S(=O)(=O)c1ccc(Cl)c([N+](=O)[O-])c1)NCc1ccccc1,-1,13%,8.6,3,2.4,-1.7,-1
CCNC(=S)Nc1cc(C(=O)N2CCCC2)ccc1N1CCCC1,-2,-4%,0.0,0,-1.3,-2.8,65
COc1ccccc1NC(=O)N1CCCC1C(=O)NCc1ccccc1 (centres undefined),-3,0%,4.7,-14,1.0,5.3,-17
COC(=O)CNc1c(-c2ccccn2)nc2ccc(Br)cn12,4,13%,6.3,1,11,-1.7,-14
Cc1cc(NS(=O)(=O)c2ccc(NC(=O)c3ccc([N+](=O)[O-])s3)cc2)nc(C)n1,-4,nt,0.6,nt,-0.1,nt,-47
COc1ccc(N(C(C)=O)C2C=CS(=O)(=O)C2)c(OC)c1 (centres undefined),3,7%,3.6,-33,4.0,-0.6,-2
COc1ccc(OC)c2sc(NC(=O)C3COc4ccccc4O3)nc12 (centres undefined),3,nt,-7.1,8,-1.6,18*,-6
Cc1ccc(C)c(NC(=O)CN(C)C(=O)c2cccc(Oc3ccccc3)c2)c1,4,nt,0.0,nt,-5.9,nt,-3
CCOc1cc(N2CCOCC2)c(OCC)cc1NC(=O)c1cc(C)cc(C)c1,3,-9%,1.6,-1,0.8,4.8,-25
c1nc(SSc2ncnc3nc[nH]c23)c2[nH]cnc2n1,-6,-24%,nt,nt,2.3,nt,nt
COc1ccc(C(=O)NC(C)c2cnn(-c3ccccn3)c2C)o1 (centres undefined),-3,nt,2.4,-3,-0.5,1.3,0
O=C(CN1CCCCCC1)Nc1c(Cl)cc(Cl)cc1Cl,-2,nt,1.5,2,3.4,-6.6,10
CC(OC(=O)c1ccc(-c2ccc([N+](=O)[O-])cc2)o1)C(=O)NC(N)=O (centres undefined),-4,-11%,2.4,-4,-1.6,-0.9,10
O=P(COCCO)(c1ccccc1)c1ccccc1,-2,-3%,1.8,8,2.0,-0.4,-23
COCC1CCN(Cc2c(C(=O)N3CCN(C4CCCCC4)CC3)nc3ccccn23)C1 (centres undefined),3,nt,-0.4,2,-8.1,111*,-2
Cc1ccccc1-n1nnnc1SCC(=O)c1c(N)n(C2CC2)c(=O)[nH]c1=O,-2,-2%,nt,nt,0.3,nt,nt
CC(=O)c1ccccc1C(=O)N1CCCC(CNC(=O)c2ccccc2Cl)C1 (centres undefined),4,nt,-0.1,8,2.8,0.0,-2

# Arranged by value in Beta2AR agonist (smallest number first): three from the list above
Molecule,Beta2AR agonist
c1nc(SSc2ncnc3nc[nH]c23)c2[nH]cnc2n1,-6
CCOC(=O)C1=C(C)C/C(=N\NC(=O)c2ccccc2O)CC1,0
CCN(C(=O)COC(=O)CNC(=O)c1sc2ccccc2c1Cl)C1CCCCC1,5

# Later entries
SMILES,Beta2AR agonist,Vif A3G,LANA-H2B inh,Calb FLC,HNF4A DNA FP,RanGTP-Imp inh,ALR inh
O=C(COn1nnc2ccc(S(=O)(=O)N3CCOCC3)cc21)Nc1c(F)c(F)c(F)c(F)c1F,1,nt,3.9,3,0.2,-6.2,27
COc1ccc(-n2cc(C(=O)c3ccc4ccccc4c3O)cn2)cc1,-6,-12%,-2.1,-2,-3.4,-2.3,-25
O=C1C=C(c2ccc3ncccc3c2)C[C@@H](c2ccc(Cl)cc2)C1,7,nt,-0.3,nt,1.4,nt,-7
Nc1nc(SCC(=O)NCC2CCCO2)[nH]c(=O)c1NC(=O)c1ccc(F)c(F)c1 (centres undefined),9,4%,-3.6,-7,0.6,0.0,6
Cc1cccc(-c2noc(CNC(=O)c3ccco3)n2)c1,-11,nt,3.9,9,-0.2,3.4,-3
O=C(C[n+]1cc(Br)cc2ccccc21)c1ccc(Cl)cc1,13,-33%,0.4,1,0.7,-4.2,-4
Cc1ccc(C(=O)N/N=C\c2ccc3c(c2)OCO3)cn1,-4,11%,1.4,-2,1.6,-4.7,-5
Cc1cc(-n2c(C)cc(C(=O)CSc3nc4ccccc4c(=O)n3Cc3ccco3)c2C)no1,0,23%,-1.4,-3,1.4,-1.7,-6
COc1ccc(NC(=O)c2cc(S(=O)(=O)N3CCCC3)cn2C)cc1Cl,2,nt,-2.0,-2,-1.2,2.2,-24
COc1ccc(-c2noc(Cc3ccc(Cl)cc3)n2)cc1OC,-6,14%,1.0,-5,2.9,3.7,-22
O=C(Nc1ccc(S(=O)(=O)Nc2ncccn2)cc1)c1ccccc1NS(=O)(=O)c1ccc(F)cc1,4,?,-0.1,-1,-4.1,-8.7,14
COc1ccc2nc3cc(Cl)ccc3c(Nc3cc(C(C)C)c(O)cc3C)c2c1,35,0%,1.0,19,0.7,115*,0
COc1ccc(Br)c(C(=O)NC(C)(C)CO)c1,1,68%,-1.1,14,1.2,-0.1,nt
Cc1ccc(NC(=S)NNC(=O)c2c(Cl)c(C)nn2C)cc1,2,1%,-0.6,3,-5.7,0.1,87*
Cc1oc(-c2ccc(Cl)cc2)nc1CS(=O)CC(=O)NCc1ccc2c(c1)OCO2 (centres undefined),7,nt,-5.6,-8,0.5,2.6,58
O=C(Cc1ccccc1[N+](=O)[O-])NCc1ccc(Cl)cc1,1,6%,-3.8,2,-2.3,-3.1,-3
COc1ccc(N/C(N)=N/c2nc(C)cc(C)n2)c(OC)c1,1,12%,-0.2,4,3.6,2.1,-12
CCN(C(=O)CSc1nc2ccccc2c(=O)n1-c1ccccc1F)C1CCS(=O)(=O)C1 (centres undefined),8,nt,-5.2,nt,2.6,nt,nt
Cc1sc2ncnc(Oc3ccc(-n4ccnc4)cc3)c2c1C,-9,17%,3.6,45,0.1,0.1,-10
C=CCNC(=O)C(C#N)c1nc2ccccc2nc1N1CCN(Cc2ccccc2)CC1 (centres undefined),-9,24%,6.1,4,-4.2,3.2,-7
Cc1cc(C)c(O)c(NC(=S)NC(=O)Cc2ccccc2)c1,0,nt,-0.9,-4,0.0,1.8,nt
COc1ccc(CCNC(=O)c2cnn3cccnc23)cc1OC,0,-1%,0.8,3,0.9,0.0,-11
O=C(COc1ccc2c3c(c(=O)oc2c1)CCC3)NC(Cc1ccc(Cl)cc1)C(=O)O (centres undefined),3,nt,-6.1,4,12,?,3
